Screening data (PubChem BioAssay)
PINK1 modulator: A Quantitative High throughput Screen to Identify Chemical Modulators of PINK1 Expression; 410,000 tested, 0.2% active; PINK1 immunofluorescence, high-content cytometry, 24 h; Potency, µM (series often up to 76.6 µM), for the others: at the top dose activation (PINK1 increase), most hits filed as activators; active = well fitted activation curve with a large enough effect; inconclusive = small, poorly fitted or top-dose-only effect; inactive = flat fitted curve, though single readings scatter; cell line not stated here;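 further: potency means the concentration at half of the fitted maximal effect; % of control where 0% means no effect; nearly all actives have a fitted effect of over 65% in size; a mitochondrial uncoupler was the plate control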
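Compound titrations (5 concentrations, 24 h) on a stable cell line; DMSO and CCCP controls. Endpoint: fixed-cell PINK1 immunofluorescence with mitochondrial, cell and nuclear markers, scanned by microplate cytometer.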
D2 agonist: Beta-Arrestin HTS for Positive Allosteric Modulators of the Human D2 Dopamine Receptor: Agonists; D(2) dopamine receptor (Homo sapiens), P14416; DiscoveRx PathHunter D2 beta-arrestin, luminescence, 90 min; 100% = 57 uM dopamine signal; activation, % (no concentration beside the values); 360,000 tested, 0.084% active; AID 624465, 2012; in the data active = activation above about 40%; inconclusive = about 15% to 40%; inactive = below about 15%; further: compound concentration not given in the record; the text of the record calls up to 30% inactive
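Agonist mode: compounds alone added to overnight-plated D2 PathHunter cells for 90 min at 37 C, with 57 uM final dopamine (EC100) defining full response. Beta-arrestin recruitment detected by chemiluminescent reagent, read after 1 h at ambient temperature.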
D2 potentiator: Beta-Arrestin HTS for Positive Allosteric Modulators of the Human D2 Dopamine Receptor: Potentiators | D(2) dopamine receptor (Homo sapiens), P14416 | AID 624464, 2012 | potentiation, % (test concentration not listed) | DiscoveRx D2 beta-arrestin cells, luminescence, 90 min; 100% = 57 uM dopamine signal | 360,000 tested, 0.23% active; active = potentiation of 50% or more; inconclusive = 30% to 50%; inactive = 30% or less;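 further: compound concentration not given in the record; tested on top of an EC20 dose of dopamine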
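PathHunter beta-arrestin assay in DiscoveRx D2 cells. Compounds were added with an EC20 of dopamine (50 nM final) for 90 min at 37 deg C. Luminescence was read 1 h after detection reagent, with 57 uM dopamine as the EC100 control.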
Six1-Eya2 inh: qHTS Assay for Inhibitors of the Six1/Eya2 Interaction. Homeobox protein SIX1 (Homo sapiens) + Protein phosphatase EYA2 (Homo sapiens), …. AlphaScreen GST-Six1/His-Eya2 binding, biochemical; hits give low values; control for the full effect not named in the record. 360,000 tested, 0.56% active. activity change, % (test concentration not listed); in the data active = activity change below about -65%; inconclusive = about -30% to -65%; inactive = above about -30%; further: on the % scale 0 is the no-effect control and ±100 the full control effect; compound concentration not given in the record
Target sequence (O00167 whole entry, looked up): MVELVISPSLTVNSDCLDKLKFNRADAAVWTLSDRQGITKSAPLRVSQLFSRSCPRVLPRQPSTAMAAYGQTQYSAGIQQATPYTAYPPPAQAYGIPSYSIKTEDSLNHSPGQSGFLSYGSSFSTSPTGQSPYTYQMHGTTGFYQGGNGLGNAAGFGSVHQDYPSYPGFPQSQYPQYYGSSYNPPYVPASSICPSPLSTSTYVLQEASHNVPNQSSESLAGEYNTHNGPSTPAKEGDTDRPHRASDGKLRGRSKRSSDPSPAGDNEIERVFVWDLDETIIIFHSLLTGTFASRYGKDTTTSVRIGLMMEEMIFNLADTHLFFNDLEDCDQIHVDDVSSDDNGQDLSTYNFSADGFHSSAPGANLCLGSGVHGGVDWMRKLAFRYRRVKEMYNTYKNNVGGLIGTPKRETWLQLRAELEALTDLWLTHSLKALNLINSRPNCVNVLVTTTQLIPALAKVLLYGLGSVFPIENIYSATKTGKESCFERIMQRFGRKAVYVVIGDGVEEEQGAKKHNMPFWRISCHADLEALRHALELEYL
Target sequence (Q15475 whole entry, looked up): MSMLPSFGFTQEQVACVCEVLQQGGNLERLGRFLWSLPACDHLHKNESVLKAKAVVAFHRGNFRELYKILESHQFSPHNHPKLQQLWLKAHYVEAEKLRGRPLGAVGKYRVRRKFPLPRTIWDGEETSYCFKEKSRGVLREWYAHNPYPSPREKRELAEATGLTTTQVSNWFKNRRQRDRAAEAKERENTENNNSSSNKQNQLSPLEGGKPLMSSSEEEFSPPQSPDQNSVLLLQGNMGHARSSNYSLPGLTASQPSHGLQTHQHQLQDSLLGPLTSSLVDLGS
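GST-Six1 + His-Eya2 (5X stock: 250/500 nM); Tris pH 8.0, 300 mM NaCl, 0.05% BSA, 0.02% Tween 20; GSH donor/Ni acceptor beads; 1 h 37 °C dark; AlphaScreen readout.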
TRPML1 ag: qHTS for Agonists of the Human Mucolipin Transient Receptor Potential 1 (TRPML1). 410,000 tested, 0.12% active. TRPML1-expressing cells, Ca2+ dye fluorescence, FDSS; host cell line not named in the record; reference of the full effect not given here. Mucolipin-1 (Homo sapiens), Q9GZU1. activation, % (concentration not given with the values); in the data active = activation above about 50%; inconclusive = about 30% to 50%; inactive = below about 30%; further: 0% is about no effect; the text of the record puts the active cut at 80%
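Kinetic FDSS Ca2+ read in Tet-induced TRPML1-DL cells (ABD Ca8 dye plus quencher, 45-90 min RT loading): baseline, then compound, then 110 s agonist window; EC80 agonist 54-4 at 4uM final added afterwards for a 110 s antagonist window.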
CtBP-E1A blk: qHTS Assay for Inhibitors of the CtBP/E1A Interaction. AlphaScreen GST-E1A/His-CtBP binding, 1536-well; hits give low values; control for the full effect not named in the record. activity change, % (no concentration beside the values). 340,000 tested, 0.49% active. AID 651724, 2012; in the data active means activity change below about -65%; inconclusive means about -30% to -65%; inactive means above about -30%; further: on the % scale 0 is the no-effect control and ±100 the full control effect; compound concentration not given in the record
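In 5 uL wells, 23 nL compound meets equimolar GST-E1A and His-CtBP (5X stock 125 nM each) for 2 h, 37 °C. Beads (5X, 50 ug/mL) then 1 h, 37 °C, dark.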
* = called active by the depositor; ? = inconclusive; . = not tested or not shown; [ ] = remark or other dose. The list is partial, so the mix of outcomes need not match the whole.

SMILES	PINK1 modulator	D2 agonist	D2 potentiator	Six1-Eya2 inh	TRPML1 ag	CtBP-E1A blk
O=C(c1ccc(Cl)cc1)C1CCCN(Cc2cccc3cnccc23)C1 (stereo unspecified)	1.1%	-3.0	-22	-6	-0.1	-2
Cc1ccc(-c2nc3ccccc3c(=O)n2-c2ncccc2C)cc1	-2.4%	-2.4	-11	-8	-1.1	-10
CC(=O)Nc1ccccc1C(=O)OCc1ccc(C(=O)c2ccccc2)cc1	-1.0%[38.3 µM]	1.5	4	11	-0.3	9
C=CCn1c(O)c(C(CC)=Nc2ccc3c(c2)CCC3)c(=O)[nH]c1=O	0.7%	-5.4	-7	-9	-0.6	-23
O/N=C1/C(=C\c2ccccc2)N2CCC1CC2	-4.0%[38.3 µM]	0.0	-11	0	-0.4	6
S=C(NCCc1ccccc1)N1Cc2cc(N3CCOCC3)ccc2-n2nncc2C1	-0.1%	9.8	1	-4	-0.3	-4
COc1ccc(OCC(=O)N2CCCC(N3CCN(c4ccccc4C)CC3)C2)cc1 (stereo unspecified)	-0.1%	0.2	-28	-4	1.9	-5
O/N=C1\CCC2CN(C3CCCCC3)CC2C1 (stereo unspecified)	1.3%	-2.2	-17	0	-0.3	6
CCCCCCn1c(O)c(C=NCCN2CCOCC2)c(=O)[nH]c1=O	0.3%	0.2	-8	4	0.3	.
N#Cc1cn(C2OC(CO)C(O)C2O)c2ncnc(N)c12 (stereo unspecified)	-1.6%	-5.8	-19	0	-0.3	3
CC(=NCc1ccco1)c1c(O)n(-c2ccc(Cl)cc2)c(=O)[nH]c1=O	3.5%	-3.9	5	-4	5.8	7
O=P(O)(O)/C=C(\Cl)c1ccccc1	-1.8%	-3.9	-2	0	2.1	0
CC12CN3CC(C)(CN(C1)C3c1ccco1)C2=O (stereo unspecified)	0.8%	-0.9	-11	3	-0.3	4
CN1CCc2nc3sc(C(=O)NC(C)(C)C)c(N)c3cc2C1	-4.9%	-3.0	2	-8	0.4	-25
COc1ccc(-n2c(O)c(C(C)=NCC3CCCO3)c(=O)[nH]c2=O)cc1 (stereo unspecified)	-1.2%	-0.8	-9	16	0.2	5

Some of the entries so far, as labelled records.
CCCCCCn1c(O)c(C=NCCN2CCOCC2)c(=O)[nH]c1=O
  PINK1 modulator: 0.3%; D2 agonist: 0.2; D2 potentiator: -8; Six1-Eya2 inh: 4; TRPML1 ag: 0.3; CtBP-E1A blk: .

CC(=NCc1ccco1)c1c(O)n(-c2ccc(Cl)cc2)c(=O)[nH]c1=O
  PINK1 modulator: 3.5%; D2 agonist: -3.9; D2 potentiator: 5; Six1-Eya2 inh: -4; TRPML1 ag: 5.8; CtBP-E1A blk: 7

Remaining list, next part:
SMILES	PINK1 modulator	D2 agonist	D2 potentiator	Six1-Eya2 inh	TRPML1 ag	CtBP-E1A blk
COC(=O)C1=C(c2ccc(OC)c(OC)c2)C[C@@H]2CC[C@H]1N2C(=O)NCc1cc(C)oc1C(F)(F)F	-0.1%	-1.3	-2	4	1.8	3
CC(C)c1ccc(-n2c(O)c(C=NCCN3CCNCC3)c(=O)[nH]c2=S)cc1	0.3%	1.7	-5	12	1.3	.
C(=NC12CN3CN(CN(C3)C1)C2)c1cccs1	.	1.2	-4	1	-0.5	5
Oc1cc(Cl)cc(Cl)c1Cl	?	0.7	-5	6	-1.0	-1
CC1OC(NCCc2ccccc2)C(O)C(O)C1O (stereo unspecified)	-0.8%	-2.0	-11	1	-0.3	1
O=c1[nH]c(=O)n(-c2cccc(Cl)c2)c(O)c1C=NCCN1CCCCC1	.	-0.9	-11	2	-0.2	9
O=c1[nH]c(=S)n(C2CC2)c(O)c1C=Nc1cccc(C(F)(F)F)c1	5.8%	-2.2	-9	3	0.9	4
C1=C(c2ccccc2)CCNC1	2.3%	-1.7	-9	5	0.1	0
CCOP(=O)(OCC)C(O)c1ccc(OC)c(OC)c1 (stereo unspecified)	0.4%	-2.7	6	-2	1.0	2
COC(=O)C1=C(C(=O)OC)C2c3ccccc3C1c1ccccc12	-3.6%	-5.2	-22	-4	3.6	6
CCN(CC)S(=O)(=O)c1ccc(C)c(NCC(=O)Nc2ccc(C#N)c(Cl)c2)c1	?	1.6	-18	-14	-0.1	1
Cn1c(O)c(Cc2ccc(OCc3ccccc3)cc2)c(=O)n(C)c1=O	4.7%	0.0	2	-5	-0.7	.
Cc1sc2ncn(CC(=O)NCC(=O)N3CCC4(CC3)OCCO4)c(=O)c2c1C	2.8%	-0.7	0	9	-0.3	0
CS(=O)(=O)NNP(=O)(NNS(C)(=O)=O)NC(=O)c1ccc(Br)cc1	-0.7%	0.7	-6	3	1.4	9
CCN(CC)CCCN=C(C)c1c(O)n(-c2ccc(C)cc2)c(=O)[nH]c1=O	?	-2.6	7	-3	-0.1	3
CC(C(O)c1ccccc1)N(C)CCn1cnc2c1c(=O)n(C)c(=O)n2C (stereo unspecified)	0.4%	0.0	-2	0	0.0	7
COCC(C)OC(=O)c1c(N)n(Cc2ccco2)c2nc3ccccc3nc12 (stereo unspecified)	7.1%	-1.1	-9	0	0.9	3
O=C1OCCN1P(=O)(c1ccccc1)c1ccccc1	1.2%	-1.7	-2	2	-0.6	1
c1ccc(NC2=NCCCS2)cc1	0.1%	-3.2	2	0	.	5
Clc1cc(Cl)cc(NC2=NCCS2)c1	1.4%	2.3	-4	6	1.3	4
O=C(c1ccco1)N1Cc2ccccc2-n2nncc2C1	-0.2%	-4.2	-4	-5	-0.5	0
NC(=O)C1CCN(/C=C2\C(=O)NC(=O)N(Cc3ccco3)C2=O)CC1	-1.3%	-0.9	-5	-15	0.0	-1
CC(C)c1ccc(-n2c(O)c(C=NC(CCS(C)=O)C(=O)O)c(=O)[nH]c2=S)cc1 (stereo unspecified)	0.1%	-4.3	-9	0	.	2
CCC12CN3CCN(CC(C3)C1O)C2 (stereo unspecified)	0.5%	-3.4	1	4	-0.3	4
CCOc1cc(CNCCc2c[nH]c3ccccc23)cc(Cl)c1OCC	-1.7%	0.6	-35	-21	1.9	-13
CCC1(C)CC(CCNCc2ccc(N(C)C)cc2)(c2ccc(F)cc2)CCO1 (stereo unspecified)	3.8%	-1.9	-16	-16	2.0	?
CN1CCN(c2ncnc3c2cnn3C)CC1	0.7%	3.9	4	2	0.3	.
CCSc1nnc([C@@H](N)Cc2c[nH]c3ccccc23)o1	-2.4%	-0.3	-4	-2	-0.7	-1
CN(C)CC#CCn1c2ccccc2c2ccccc21	1.7%	-4.7	-26	-18	0.1	.
COc1ccc(C(O)c2ccccc2OP(=O)(N(C)C)N(C)C)cc1 (stereo unspecified)	1.2%	-2.3	-19	1	-0.2	5
Cc1ccc2nc3c(cc2c1)CC1(C(=O)N(C)C(=O)N(C)C1=O)C1COCCN31 (stereo unspecified)	0.5%	-1.9	-3	0	0.6	1
CNP(=S)(NC)OCCOc1ccc(OC)cc1	-2.0%	3.6	-13	-6	1.3	5
CNC(=O)c1cccn(Cc2ccc(C(F)(F)F)cc2)c1=O	1.8%	-2.5	3	0	0.5	.
CC(C)OP(=O)(OC(C)C)C(O)c1ccc(Br)cc1 (stereo unspecified)	0.4%	12	104*	22	-0.3	14
COc1ccc(CC2(CCc3ccccn3)C(=O)NC(=O)N(c3ccccc3C)C2=O)cc1OC (stereo unspecified)	0.4%	0.0	-2	11	-0.7	6
Nc1c(Br)cc2c3c(cccc13)-c1ccccc1-2	6.5%	7.3	60*	76	23	85
CC(=NCCCN1CCOCC1)c1c(O)n(Cc2ccccc2)c(=O)[nH]c1=O	2.9%	1.0	-10	5	0.3	1
CC(=O)OC1CC(OC2C(O)CC(OC3C(O)CC(OC4CCC5(C)C(CCC6C5CCC5(C)C(C7=CC(=O)OC7)C(O)CC65O)C4)OC3C)OC2C)OC(C)C1OC1OC(CO)C(O)C(O)C1O (stereo unspecified)	-5.3%	0.0	-8	0	0.0	4
CCN1CCN(c2ccc(N)cc2)CC1	-0.6%	6.6	-26	-7	0.1	-10
CCCCn1c(=O)c(C=Nc2ccc(Cl)cc2)c(O)n(Cc2ccco2)c1=O	-0.7%	-1.3	-5	8	-0.2	16
O=C(NC1CCCCC1)N1Cc2ccccc2-n2nncc2C1	-1.3%	.	-5	3	0.8	-23
CCCCn1c(=O)c(C(=O)NCc2ccco2)c(O)c2ccccc21	28%	8.7	-1	2	2.7	-12
CNC(C(=O)c1ccccc1)C(OC)c1ccc(C)cc1 (stereo unspecified)	-2.4%	-3.3	-31	-2	-0.6	4
CN1CCN(C(=O)COc2ccc(S(=O)(=O)Nc3ccc(Cl)cc3)cc2)CC1	0.8%	-2.2	-10	0	1.1	4
Cc1ccsc1C(=O)C1CCCN(Cc2cccn2-c2ccccn2)C1 (stereo unspecified)	4.6%	-1.3	-29	-12	0.2	-7

Arranged by SMILES length (low to high): 13 of the compounds above
SMILES	PINK1 modulator	D2 agonist	D2 potentiator	Six1-Eya2 inh	TRPML1 ag	CtBP-E1A blk
CCN1CCN(c2ccc(N)cc2)CC1	-0.6%	6.6	-26	-7	0.1	-10
CNP(=S)(NC)OCCOc1ccc(OC)cc1	-2.0%	3.6	-13	-6	1.3	5
Nc1c(Br)cc2c3c(cccc13)-c1ccccc1-2	6.5%	7.3	60*	76	23	85
CC(C)OP(=O)(OC(C)C)C(O)c1ccc(Br)cc1 (stereo unspecified)	0.4%	12	104*	22	-0.3	14
CNC(=O)c1cccn(Cc2ccc(C(F)(F)F)cc2)c1=O	1.8%	-2.5	3	0	0.5	.
Cc1ccsc1C(=O)C1CCCN(Cc2cccn2-c2ccccn2)C1 (stereo unspecified)	4.6%	-1.3	-29	-12	0.2	-7
CCCCn1c(=O)c(C(=O)NCc2ccco2)c(O)c2ccccc21	28%	8.7	-1	2	2.7	-12
COc1ccc(C(O)c2ccccc2OP(=O)(N(C)C)N(C)C)cc1 (stereo unspecified)	1.2%	-2.3	-19	1	-0.2	5
CCCCn1c(=O)c(C=Nc2ccc(Cl)cc2)c(O)n(Cc2ccco2)c1=O	-0.7%	-1.3	-5	8	-0.2	16
CN1CCN(C(=O)COc2ccc(S(=O)(=O)Nc3ccc(Cl)cc3)cc2)CC1	0.8%	-2.2	-10	0	1.1	4
Cc1ccc2nc3c(cc2c1)CC1(C(=O)N(C)C(=O)N(C)C1=O)C1COCCN31 (stereo unspecified)	0.5%	-1.9	-3	0	0.6	1
COc1ccc(CC2(CCc3ccccn3)C(=O)NC(=O)N(c3ccccc3C)C2=O)cc1OC (stereo unspecified)	0.4%	0.0	-2	11	-0.7	6
CC(=O)OC1CC(OC2C(O)CC(OC3C(O)CC(OC4CCC5(C)C(CCC6C5CCC5(C)C(C7=CC(=O)OC7)C(O)CC65O)C4)OC3C)OC2C)OC(C)C1OC1OC(CO)C(O)C(O)C1O (stereo unspecified)	-5.3%	0.0	-8	0	0.0	4
